VDR inhibitor: Inhibitors of the vitamin D receptor (VDR): qHTS | Vitamin D3 receptor (Homo sapiens), P11473 | VDR-SRC2-3 peptide fluorescence polarization, 2 h | Potency, µM, for the others: max response, negative = inhibition, actives largely listed as inhibitors | 0.93% of 400,000 active; active = well fitted inhibition curve with a large enough effect; inconclusive = small, poorly fitted or top-dose-only effect, or another doubt; inactive = no such curve, though single readings can be large or run the other way; also: series mostly up to about 120 µM
Target sequence (P11473 whole entry, looked up): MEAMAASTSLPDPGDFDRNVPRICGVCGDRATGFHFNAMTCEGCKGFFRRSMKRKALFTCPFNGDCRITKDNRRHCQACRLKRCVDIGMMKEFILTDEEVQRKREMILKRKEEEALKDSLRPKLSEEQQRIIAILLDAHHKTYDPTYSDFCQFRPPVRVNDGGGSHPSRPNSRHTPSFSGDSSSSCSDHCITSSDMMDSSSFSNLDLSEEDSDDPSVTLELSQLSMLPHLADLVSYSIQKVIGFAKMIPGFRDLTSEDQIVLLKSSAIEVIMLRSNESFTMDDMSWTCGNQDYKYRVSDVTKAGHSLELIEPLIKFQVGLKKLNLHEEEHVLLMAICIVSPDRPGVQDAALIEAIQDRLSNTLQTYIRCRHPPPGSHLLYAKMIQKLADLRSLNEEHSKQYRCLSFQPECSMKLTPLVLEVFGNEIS
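FP read-out; VDR + SRC2-3 coactivator peptide; 23 nl compound by pintool; 2 h RT incubation; reagents held at 4 deg C, protected from light.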
* marks the source's active call; other numbers are inactive results; ? = inconclusive; & = joins results of further samples. % is scaled to controls: 0 for no effect and ±100 for the full control effect; potency is read from the fitted curve at half-maximal effect.

no.	SMILES	VDR inhibitor
1	CC(=O)OC1c2ccccc2C(=O)N1c1ccccc1C (centres undefined)	-9%
2	COc1ccc([C@H]2CC(=O)C=C(/C=C/c3ccc(Cl)cc3)C2)cc1	-17%
3	CCOC(=O)C1CCCCN1C(=O)c1ccc2nc(Cc3ccc(OC)cc3)oc2c1 (centres undefined)	8%
4	CCOc1ccc(C(=O)N2CCN(c3ncccn3)CC2)cc1	6%
5	CCN(CC)CCOc1c(Br)ccc2c1sc1nc3n(c(=O)c12)CCC3	-10%
6	C=CCN1CCOc2ccc(C)cc2S1(=O)=O	1%
7	CCOC(=O)c1c(C)[nH]c(C(=O)COC(=O)CCC(=O)c2ccc3c(c2)OCCO3)c1C	-7%
8	CS(=O)(=O)CCC(C(=O)OCc1ccc(Cl)cc1)N1C(=O)c2ccccc2C1=O (centres undefined)	-11%
9	O=C(c1cc(-c2ccc(Cl)c(Cl)c2)on1)N1CCCCCC1	-20%
10	CC(C)CN(C(=O)COC(=O)CCCc1c[nH]c2ccccc12)c1c(N)n(Cc2ccccc2)c(=O)[nH]c1=O	0%
11	COC(=O)CN1C(=O)C(O)(CC(=O)c2ccccc2)c2ccccc21 (centres undefined)	-8%
12	Nc1ccc(OCc2ccccc2)cc1	-8%
13	CCCCCCSc1ccc([C@H]2N[C@@](CC(C)C)(C(=O)OC)[C@H]3C(=O)N(CC)C(=O)[C@@H]23)cc1	-20%
14	CCOC(=O)Cc1csc(NC(=O)CSc2ncnc3c2cnn3-c2ccccc2Cl)n1	14%
15	COc1ccccc1NC(=O)C[n+]1ccccc1C	-1%
16	Cc1nn(Cc2ccc(F)cc2)c(C)c1NC(=O)c1nn(C)cc1Cl	8%
17	COc1ccc(OCc2cccc(C(=O)Nc3ccc(CN4CCCCC4)cc3)c2)cc1	14%
18	CCOc1ccccc1CNC(=O)Cn1nc(C)c2nn(-c3ccc(Cl)cc3)c(C)c2c1=O	7%
19	CCN(C(=O)CSc1nc2ccc(C)cc2[nH]1)C1CCS(=O)(=O)C1 (centres undefined)	4%
20	Cc1nc(N2CCN(c3ccccc3)CC2)nc2c1C(=O)CC(C)C2 (centres undefined)	10%
21	O=C(CSc1ccc2nnc(-c3ccccn3)n2n1)Nc1ccccc1C(F)(F)F	-7%
22	Cc1ccc(-c2noc(-c3cc(-c4ccc(F)cc4)n[nH]3)n2)cc1	0%
23	O=C(O)CCC(=O)NN1C(=O)c2ccccc2NC1c1ccco1 (centres undefined)	-10%
24	C=CCOC(=O)C1=C(C)Nc2ncnn2C1c1cc(Br)ccc1F (centres undefined)	-8%
25	CCOC(=O)N1CCN(S(=O)(=O)N2CCCC(C(=O)NCCc3ccc(Cl)cc3)C2)CC1 (centres undefined)	-17%
26	COc1ccc(Oc2ncc3nc(-c4cccs4)c(=O)n(C)c3n2)cc1	0%
27	C#CCn1c(C)cc(C)c(S(=O)(=O)c2ccccc2)c1=O	6%
28	Cc1ccc2[nH]c3c(=O)n(CC(=O)N(C)c4cc(Cl)ccc4C)ncc3c2c1	1%
29	N#CCC(=O)Nc1ccc(C(=O)OCC(=O)NCCCc2ccccc2)cc1	16%
30	CC1=C(C(=O)OCC2CCCO2)C(c2ccc(O)cc2)NC(=O)N1 (centres undefined)	11%
31	N#CC1=C(N)C(C#N)(C#N)[C@H](c2c(F)cccc2F)[C@H]2CC3(CC=C12)OCCO3	?
32	CC1=C(C(=O)Nc2cccnc2)C(c2ccc(C(C)C)cc2)n2ncnc2N1 (centres undefined)	-9%
33	COc1ccc(C2=NS(=O)(=O)N(C)C(C(=O)NCc3ccccn3)=C2)cc1	5%
34	COc1ccc2nc(NC(=S)N(C)C)sc2c1	?
35	CC(=O)Nc1ccc(NC(=O)CN(c2ccccc2Cl)S(C)(=O)=O)cc1	7%
36	COc1cccc(CNC(=O)Cn2c(=O)cc(C)c3c(C)nn(C)c32)c1OC	-5%
37	O=C(NC1CC1)C1=C[C@@H](c2csc3ccccc23)C[C@@H](OCCCCO)O1	-17%
38	COc1ccc2c(c1)c(=O)oc1c(C)c(OC(C)C(=O)NCC3CCC(C(=O)O)CC3)ccc12 (centres undefined)	-16%
39	CCCCC(=O)Nc1ccc(C(=O)NCC(=O)OC)cc1	5%
40	Cc1cccc(CS(=O)(=O)Cc2ccc(C(=O)NCc3ccccc3)o2)c1	-12%&4%
41	O=C(COC(=O)CCc1c[nH]c2ccccc12)Nc1ccccc1	-14%
42	CC(C)c1cccc(C2=CC(=O)C[C@H](c3ccc(F)cc3)C2)c1	-6%
43	O=C1CN(Cc2ccccc2)CC(=O)N1	8%
44	CCc1ccc(NC(=O)[C@H](Cc2c[nH]c3ccccc23)NC(=O)[C@@H]2Cc3ccccc3CN2)cc1	-10%
45	Cc1cccc(C)c1NC(=O)c1cn(-c2ccccc2)nc1-c1ccccc1	-3%
46	CCCCNC(=O)Cn1c(=O)c2c(ncn2CC)n(Cc2ccccc2)c1=O	-14%
47	CCOC(=O)CN1C(=O)COc2ccc(C(C)(C)C)cc21	-14%
48	CN(C)CCCNC(=S)N(CCCO)Cc1cc2cc3c(cc2[nH]c1=O)OCO3	-11%
49	O=C1NC(=O)C(c2ccc(Cl)cc2Cl)N1 (centres undefined)	-3%
50	CCCCn1cc(S(=O)(=O)c2ccc(OCC)cc2)c(=O)c2cc(OC)c(OC)cc21	-14%
51	O=C(O)c1cccc(NC(=S)N/N=C/c2ccccn2)c1	?
52	COc1ccc2c(c1)O[C@H](c1ccc3c(c1)OCO3)[C@@H](OC(=O)NCc1ccco1)C2=O	?
53	CCc1ccc(CN(C)C(=O)c2ccc3c(=O)n4c(nc3c2)CCC4)cc1	-8%
54	C/C(=N\NC(=O)c1nn(C)c(C)c1Br)c1ccc(NC(=O)c2ccc(C)s2)cc1	-1%
55	COC(C[C@H]1O[C@H]1[C@@H](O)[C@@H](C)OCc1ccccc1)OC	1%
56	CC1=C(C(=O)OC2CCCCC2)C(c2cccc([N+](=O)[O-])c2)NC(=O)N1 (centres undefined)	19%
57	CS(=O)(=O)c1ccc(Cl)c(NC(=O)COC(=O)c2cccc(C#N)c2)c1	-12%
58	Cc1ccccc1-c1nc(CNC(=O)Nc2ccccc2)c(C)o1	-4%
59	COC(=O)c1c(NC(=O)Cc2cccs2)sc(C)c1C	-5%
60	Cc1ccsc1C(=O)OCC(=O)c1cc(C)n(C)c1C	-10%

(list continues)
no.	SMILES	VDR inhibitor
61	Cc1sc(NC(=O)CSC2=NCCS2)nc1-c1ccccc1	-4%
62	CCc1ccc(Nc2ncnc3sc4c(c23)CCCC4)cc1	8%
63	COc1ccc(-n2nnnc2SCC(=O)NCCc2ccccc2)cc1OC	-4%
64	CCOc1ccccc1NC(=O)CN1c2ccccc2S(=O)(=O)c2ccccc21	-5%
65	CCN(CC)CC(O)COCCC12CC3CC(CC(C3)C1)C2 (centres undefined)	10%
66	Cn1c(SCC(=O)NCCN2C(=O)CSC2=O)nnc1-c1ccccc1	6%
67	Cc1ccc(/C=N/NC(=O)c2nnn(-c3nonc3N)c2CN(C)C)o1	3%
68	CCO[C@H]1OC(C(=O)N2CCCCCCC2)=C[C@@H](C2CCCCC2)[C@@H]1CCCO	-15%
69	Cn1c(SCc2ccc(F)cc2)nnc1-c1ccncc1	9%
70	O=C(NN=C1CCCC1)c1cccs1	-14%
71	O=C(NC1CCCCC1)N1CCN(c2ccccc2)CC1	-15%
72	COc1ccc(CNC(=O)CCCc2nnc3n(CCC(C)C)c(=O)c4sccc4n23)cc1	6%
73	CC(C)(C)n1nc2c(c1NC(=O)c1ccccc1S(=O)(=O)C(F)F)CS(=O)(=O)C2	-6%
74	O=[N+]([O-])c1nn(-c2ccc3c(c2)OCCO3)n(O)c1=Nc1ccccc1	-11%
75	O=C(C(Sc1ccccc1)c1ccccc1)N1CCN(c2ccccc2F)CC1 (centres undefined)	4%
76	CCOC(=O)c1ccccc1NC1c2ccccc2C(=O)N1c1ccc(C)cn1 (centres undefined)	-15%
77	CCNC(=O)c1c(NC(=O)c2cc(=O)c3ccc(C)c(C)c3o2)sc2c1CCCC2	-2%
78	COc1ccc(CNC(=O)Cn2nc([N+](=O)[O-])c(Br)c2C)cc1	-5%
79	Cc1cccc(NC(=O)c2ccc3c(O)c(S(=O)(=O)c4ccccc4)c(=O)[nH]c3c2)c1C	7%
80	Cc1ccc(OCC(=O)Nc2cccc(S(=O)(=O)NC3=NCCCCC3)c2)cc1C	-15%
81	COc1ccc(-c2csc3ncnc(NCCN4CCOCC4)c23)cc1	1%
82	Cc1ccccc1C(=O)NC1CC2CCCC(C1)N2C(=O)Nc1ccccc1 (centres undefined)	0%
83	CCN(CC)c1nc2n(c(=S)n1)CCS2	-7%
84	O=C(O)[C@H]1CN(CCCP(=O)(O)O)CCN1	2%
85	COc1ccc(N(CC(=O)Nc2cccnc2)S(=O)(=O)c2ccc(C)cc2)cc1Cl	-8%
86	Cc1ccc(S(=O)(=O)N2CCN(C(=O)c3sccc3-c3ccccc3)CC2)cc1	-13%
87	CN(C)CCCNC(=O)c1ccc(=O)[nH]n1	15%
88	CC1CCc2c(sc3ncnc(NCCN4CCOCC4)c23)C1 (centres undefined)	-8%
89	O=C1c2ccccc2S(=O)(=O)N1Cc1ccccc1[N+](=O)[O-]	-14%
90	Cc1ccc(C(=O)OC(C)C(=O)NC2CCCCC2C)s1 (centres undefined)	-19%

Sorted by molecular weight (ascending): some entries from above
no.	SMILES	VDR inhibitor
66	Cn1c(SCC(=O)NCCN2C(=O)CSC2=O)nnc1-c1ccccc1	6%
75	O=C(C(Sc1ccccc1)c1ccccc1)N1CCN(c2ccccc2F)CC1 (centres undefined)	4%
86	Cc1ccc(S(=O)(=O)N2CCN(C(=O)c3sccc3-c3ccccc3)CC2)cc1	-13%

New compounds follow:
no.	SMILES	VDR inhibitor
91	Cc1nc(SCC(=O)c2cc3ccccc3oc2=O)c(C#N)c(-c2ccccc2)c1C(=O)Nc1ccccc1	-5%
92	CSc1ncccc1C(=O)N1CCN(S(=O)(=O)c2ccc(F)cc2)CC1	-11%
93	CC(c1ccccc1)n1c(N2CCN(C)CC2)nc2c1c(=O)[nH]c(=O)n2C (centres undefined)	-6%
94	CSc1nc(O)c(Cc2ccccc2)c(=O)[nH]1	-3%
95	CC(C)NC(=O)N1CC2(CCN(C(=O)c3ccncc3)CC2)C1	-6%
96	O=C(CCNC(=O)c1ccc(Br)cc1)NCCCc1ccccc1	-1%
97	Cc1nnc(Sc2cc(NCCCO)c([N+](=O)[O-])c3nonc23)s1	45µM*
98	O=C(O)Cc1ccc(NC(=O)CCN2C(=O)c3ccc([N+](=O)[O-])cc3C2=O)cc1	23%
99	Cc1c(Cl)c([N+](=O)[O-])nn1CCCC(=O)Nc1c(C)n(C)n(-c2ccccc2)c1=O	-4%
100	O=C(COC(=O)/C=C/c1ccc(Cl)cc1)Nc1ccc2c(c1)OCCO2	?
101	CCc1ccc(C2=C(C)C(N3CCC(C(=O)NCCc4ccco4)CC3)=NS2(=O)=O)cc1	8%
102	CCOC(=O)C1CCCN(C(=O)CCn2nnnc2CN2CCOCC2)C1 (centres undefined)	-3%
103	CC(C)(C)c1ccc(-c2c(C#N)c(N)nc3c2CCCC3)s1	4%
104	CCC(=O)c1ccc(OCCn2cnc3ccccc32)cc1	?
105	CCc1nnc(N/N=C/c2ccc(-c3ccc([N+](=O)[O-])cc3)o2)n1N	-24%
106	Cc1ccccc1NS(=O)(=O)c1ccc(NC(=O)CSCc2ccc(Br)cc2)cc1	14%
107	O=c1oc2cc(Oc3c([N+](=O)[O-])cc(C(F)(F)F)cc3[N+](=O)[O-])ccc2c2c1CCCC2	?
108	O=C(NC1CCN(Cc2ccccc2)CC1)c1cncc(Br)c1	17%
109	COc1ccc(N(C(=O)CSCC(=O)Nc2cc(C)on2)C(C(=O)NC2CCCCC2)c2ccc(O)c(O)c2)cc1 (centres undefined)	-11%
110	COc1ccc(/C=C(/NC(=O)c2ccco2)C(=O)N2CCCCC2)cc1	3%
111	COc1ccccc1NC(=O)C1=C(C)Nc2nc3ccccc3n2C1c1cccc(OC)c1OC (centres undefined)	-5%
112	O=C(CC(C(=O)O)c1ccc(Cl)cc1)c1ccc(Br)cc1 (centres undefined)	0%
113	O=C(N/N=C/c1ccc(N2CCCCC2)o1)c1ccccc1[N+](=O)[O-]	40µM*
114	COc1ccc(Cl)cc1NC(=O)CN(C)CC(=O)Nc1ccc(C)cc1Br	-4%
115	Cc1noc(C)c1S(=O)(=O)Nc1ccc2c(c1)C(=O)N([C@H](C)CO)C[C@H](C)[C@@H](CN(C)C(=O)NC(C)C)O2	0%
116	CC(OC(=O)c1ccc(Br)c(S(=O)(=O)N2CCOCC2)c1)C(=O)NC1CCCCC1C (centres undefined)	5%
117	O=C(O)C1CC[C@@](C(=O)O)(c2ccccc2)c2ccccc21 (some centres undefined)	5%
118	O=C(NCc1ccc2c(c1)OCO2)c1ccc(S(=O)(=O)N2CCOCC2)cc1	-22%
119	C#CCOCCOCCOCCNc1nc(N2CCN(C(=O)Cn3cc(CCCCN)nn3)CC2)nc(N2CCN(C(=O)[C@H](CCCCN)n3cc(CCCC)nn3)CC2)n1	2%
120	COc1cc(CCC(=O)NCC2CCCO2)cc(OC)c1OC (centres undefined)	6%
121	COc1ccccc1-c1nc(C#N)c(N2CCc3ccccc3C2)o1	-6%

Exported with values ahead of the structure: entries from further up
| item | VDR inhibitor | mol |
| --- | --- | --- |
| 116 | 5% | CC(OC(=O)c1ccc(Br)c(S(=O)(=O)N2CCOCC2)c1)C(=O)NC1CCCCC1C (centres undefined) |
| 117 | 5% | O=C(O)C1CC[C@@](C(=O)O)(c2ccccc2)c2ccccc21 (some centres undefined) |
| 118 | -22% | O=C(NCc1ccc2c(c1)OCO2)c1ccc(S(=O)(=O)N2CCOCC2)cc1 |
| 119 | 2% | C#CCOCCOCCOCCNc1nc(N2CCN(C(=O)Cn3cc(CCCCN)nn3)CC2)nc(N2CCN(C(=O)[C@H](CCCCN)n3cc(CCCC)nn3)CC2)n1 |

Screens: PubChem, National Center for Advancing Translational Sciences (NCATS)

Some of the compounds tested. The share of hits here may be higher or lower than overall.
